# hNpr1 antagonist – human Npr1 receptor antagonism; P16066; HEK293 hNpr1 GloSensor cGMP, ANP-stimulated luminescence; Potency, µM (series often up to 46.3 µM), inactives show top-dose activity change, negative = inhibition, actives largely listed as inhibitors; 76,000 tested, 1.6% active; AID 1347048; active = well fitted inhibition curve with a large enough effect; inconclusive = small, poorly fitted or top-dose-only effect; inactive = no such curve, though single readings can be large or run the other way;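 note: nearly all actives have a fitted effect of over 60% in size; nearly all hits also lower the signal before the agonist is added; a reference antagonist and vehicle were the controls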
# Target sequence (P16066 whole entry, looked up): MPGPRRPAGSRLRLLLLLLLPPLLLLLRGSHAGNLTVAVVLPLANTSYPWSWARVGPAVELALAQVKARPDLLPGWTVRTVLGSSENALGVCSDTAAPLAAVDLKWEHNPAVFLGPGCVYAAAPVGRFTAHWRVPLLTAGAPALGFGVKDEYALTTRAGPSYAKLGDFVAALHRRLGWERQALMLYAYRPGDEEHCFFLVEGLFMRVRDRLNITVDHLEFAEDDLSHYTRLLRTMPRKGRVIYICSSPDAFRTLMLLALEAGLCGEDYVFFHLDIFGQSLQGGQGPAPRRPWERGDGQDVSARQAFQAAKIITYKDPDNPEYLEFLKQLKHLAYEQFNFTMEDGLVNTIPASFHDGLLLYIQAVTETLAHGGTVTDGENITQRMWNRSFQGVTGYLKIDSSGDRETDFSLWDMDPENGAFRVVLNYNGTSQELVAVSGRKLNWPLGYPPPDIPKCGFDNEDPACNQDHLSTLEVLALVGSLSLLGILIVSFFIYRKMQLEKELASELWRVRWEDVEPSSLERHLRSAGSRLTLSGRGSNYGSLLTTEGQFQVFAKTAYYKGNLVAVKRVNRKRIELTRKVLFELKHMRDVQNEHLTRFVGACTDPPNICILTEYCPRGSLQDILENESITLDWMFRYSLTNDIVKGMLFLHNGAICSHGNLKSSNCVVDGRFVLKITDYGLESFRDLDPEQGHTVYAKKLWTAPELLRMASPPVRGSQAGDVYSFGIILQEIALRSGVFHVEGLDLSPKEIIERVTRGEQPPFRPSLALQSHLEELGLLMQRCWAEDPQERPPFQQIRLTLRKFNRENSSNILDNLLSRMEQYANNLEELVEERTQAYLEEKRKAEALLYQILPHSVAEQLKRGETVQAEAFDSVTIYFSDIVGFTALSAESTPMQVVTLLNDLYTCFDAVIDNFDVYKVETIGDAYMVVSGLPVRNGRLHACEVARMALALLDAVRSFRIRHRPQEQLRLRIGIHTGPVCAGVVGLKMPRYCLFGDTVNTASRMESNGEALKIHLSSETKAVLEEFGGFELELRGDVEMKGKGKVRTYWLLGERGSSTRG
#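 Compound pre-incubated 30 min at room temperature on GloSensor-loaded HEK293 cells stably carrying hNpr1 and the pGS-40F cGMP biosensor. Stimulation uses hNppA at 0.1 nM final; luminescence is taken at baseline and 20 min post-agonist.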
# * hit, by the source's call; ? = inconclusive; [ ] = remark or other dose. % is set by controls: 0 for no effect and ±100 for the full control effect; potency is the fitted concentration of half-maximal effect. These rows are one share of the data, so the mix of outcomes need not match the whole.
SMILES,hNpr1 antagonist
COc1cccc(-c2ccc(CN3CC4CCC(C3)N4c3ccc(C(F)(F)F)cc3)cc2)c1,13%
COC(=O)C1=C(C)N(Cc2cccc(F)c2)C(=O)CC1c1ccccc1Cl (configuration not stated),-5%
COCCNC(=O)[C@@H]1C[C@H](Oc2ccccc2)CN1C(=O)c1ccc2ccccc2n1,1%
Cc1ccc([C@H]2CN(C(=O)Cn3nc(C)c4ccccc4c3=O)C[C@@H]2N)o1,-1%
Cn1cc(CN2C[C@@H](CO)[C@H](C(=O)NC3CC3)C2)cn1,3%
CC1=C[C@@H](CNC(=O)c2ccncc2)[C@H](C(C)C)C[C@H]1CC(=O)N1CCOCC1,?
CCOc1ccccc1NC(=O)Cn1cccc1-c1nc(-c2ccc(F)cc2)no1,?
COc1ccc(-c2noc(-c3cccn3CC(=O)Nc3cccc(C)c3)n2)cc1F,4%
FC(F)(F)Oc1ccc(CN2CCOC[C@H](Oc3cccnc3)C2)cc1,?
CN1CC(=O)N(c2ccccc2)Cc2c(NC3CCC3)ncnc21,4%[70.6 µM]
CC1(C)N=C(c2ccccc2)C(=O)N1CC(=O)NC1CCc2ccccc21 (configuration not stated),-9%
COc1ccc(C(=O)N2C[C@@H]3C[C@H](C2)c2c(/C=C/c4ccc(Cl)cc4)ccc(=O)n2C3)cc1,-3%
Cc1cccc(NC(=O)N2CCCC(Cn3c(C)nc4cccnc43)C2)c1 (configuration not stated),-1%
Cc1cc(NC(=O)Cn2ccn3nc(-c4ccc(F)cc4)c(CO)c3c2=O)n[nH]1,4%
Cc1cc(C2CC(C(=O)NCCc3ccccc3)CN(C(=O)C3CC3)C2)ccc1F (configuration not stated),-15%
Cc1cnc(CNC(=O)c2cc(CN3CCC(Cc4ccccc4)CC3)on2)cn1,-2%
CNC(=O)[C@@H]1C[C@@H](O)CN1C1CCN(C(=O)COc2ccccc2)CC1,12%
CN(C(=O)CN1C(=O)NC2(CCCCC2)C1=O)c1ccccc1,-3%
Cc1ccc(F)c(OCC(=O)c2ccc3c(c2)N(CCCC(=O)NC2CC2)C(=O)CO3)c1,1%
Cc1cnc(C2CCC2)n1C1CCCN(C(=O)CCCc2ccccc2)C1 (configuration not stated),-8%
CCOc1ccc(C(=O)NC2CCN(c3cc(-c4ccc(OC)cc4)[nH]n3)C2)cc1 (configuration not stated),-9%
Cc1occc1C(=O)N[C@@H]1CN(Cc2cccnc2)C[C@H]1CN(C)C,2%
CCS(=O)(=O)Nc1ccc(C2(C(=O)NCc3cccc(Cl)c3)CCC2)cc1,0%
COc1ccc(Cl)cc1-c1ccc2c(c1)C(=O)N1CCN(C(=O)c3ccccc3)C[C@@H]1C(=O)N2,2%
COc1ccc(Cl)cc1C(=O)N(C)C1CCc2nn(C)c(=O)n2CC1 (configuration not stated),1%
Cc1cccc(NC(=O)CN2C(=O)C(c3ccccc3)=NC23CCCC3)c1C,-17%
O=C(c1ccccc1)N1CCCC(c2nc(C3CCOCC3)no2)C1 (configuration not stated),-9%
COc1ccc(C2Cn3nnc(-c4noc(-c5ccc[nH]5)n4)c3CO2)cc1 (configuration not stated),8%
Cc1cnc(CNCC2(O)CNCCOC2)cn1 (configuration not stated),-11%
COc1ccc(CNC(=O)C[C@@H]2C[C@H]3O[C@H](CNCc4cnccc4C(F)(F)F)[C@@H](O)[C@H]3O2)cc1,-7%
COC(=O)c1cccc(NC(=S)N[C@@H]2C=C[C@@H](c3c(C)nn(-c4ccccc4[N+](=O)[O-])c3C)C2)c1,13µM*
Cc1cc(CN2CCC3(CC2)CN(c2ccncn2)CC3CO)n(C)n1 (configuration not stated),5%
Cc1cc(C)c2[nH]c(CN3CCC(N)C3)cc(=O)c2c1 (configuration not stated),1%
C=CCN(Cc1ccc(F)cc1)Cc1ccccc1OCC(N)=O,0%
COc1ccccc1N1CCN(C(=O)Cn2cccc2-c2nc(-c3ccccc3)no2)CC1,-13%
CCC(CC)C(=O)NC[C@H]1O[C@@H](CC(=O)N2CCC(C)CC2)[C@H](O)[C@@H]1O,8%[70.6 µM]
Cc1ccc(NC(=O)C2CCN(C(=O)N3CC4CC(C3)[C@H]3CCCC(=O)N3C4)CC2)cc1 (some centres not stated),1%
CC[C@H]1CN(C(=O)NC2CCCCC2)CC[C@H]1CC(=O)Nc1nccs1,-16%[70.6 µM]
COc1cc(NC(=O)CC2CCOCC2)cc(OC)c1,-9%
COc1nccc(N2CCC(CC(=O)NCc3cccs3)CC2)n1,?
COc1ccccc1OC1(C(=O)O)CCN(Cc2ccccc2F)CC1,5%
O=C(NCc1ccco1)[C@@H]1Cc2nc[nH]c2CN1CCCc1ccccc1,-1%[70.6 µM]
C[C@H]1[C@@H]2[C@@H](O)C([C@H](C)C(=O)N(C)CCC#N)CC[C@@]2(C)CC[C@@H]1NS(C)(=O)=O (some centres not stated),3%[70.6 µM]
CCOCC(=O)Nc1nn(-c2ccc(F)cc2)c2cccc(N3CCOC3=O)c12,-8%
CN1C[C@H](NCc2cnn(C)c2)CCC[C@@H](C(=O)NCc2cc(F)cc(F)c2)CC1=O,3%[70.6 µM]
CCN1CCC(CCNC(=O)C2CCCN(C(=O)c3ccccc3)CCC(=O)NCC2)CC1 (configuration not stated),-1%
Cc1cccc(-c2ncc(CN(CCN3CCOCC3)Cc3ccco3)cn2)c1,5%
O=C(CCc1ccccc1)Nc1ccc([C@@H](O)[C@H]2COCC(=O)N2Cc2ccccc2F)cc1,-18%
O=C1CCCCC(CNC(=O)c2ccc3ncccc3c2)N1 (configuration not stated),10%
COc1ccc(-c2nc3cnccn3c2NCCC(=O)Nc2ccc(C)cc2C)cc1,5%
CCNC(=O)Nc1ccc(OCC(=O)N2CCN(c3ccccn3)CC2)nc1,-1%
O=C1Nc2ccc(-c3cccc(C(F)(F)F)c3)cc2C(=O)N2C[C@H](O)C[C@@H]12,4%[70.6 µM]
O=C(N[C@@H]1CN(Cc2ccccn2)CCC[C@H]1O)c1ccc(OCc2ccccc2)cc1,-10%[70.6 µM]
O=C(Cn1nc2c(cc1=O)CCCC2)NCCc1ccc(O)cc1,1%
COc1ccc(-n2nc(C3CCCN(CCC(C)C)C3)[nH]c2=O)cc1 (configuration not stated),15%
COCC(=O)NC[C@H]1OC[C@@H](NCc2ccc(F)cc2)[C@@H]1O,6%[70.6 µM]
CC(C)(Oc1nn(Cc2cccc(Cl)c2)c2ccccc12)C(=O)NC1CCC(O)CC1 (configuration not stated),-26%
CN(C)CC(O)c1cc2n(n1)CCN(C(=O)c1cc(=O)[nH]c(=O)[nH]1)C2 (configuration not stated),4%
COc1cccc(CN2CCN3C(=O)N(C4CCOCC4)C[C@H]3C2)n1,4%[70.6 µM]
COc1cccc([S+](=O)([O-])N2CCCC3(C2)C(=NC2CCCCC2)NC(=O)N3c2cccnc2)c1 (configuration not stated),12%

# More entries
SMILES,hNpr1 antagonist
CCc1ccc(NC(=O)Cn2c(-c3cnccn3)nc(C)c(C)c2=O)cc1,-22%
CCCN(CC1CC1)C(=O)CCC1CCCN(S(=O)(=O)c2ccc(C)cc2)C1 (configuration not stated),-22%
CCN1CC(C(=O)NCc2cccc(OCc3ccccc3)c2)CC1=O (configuration not stated),-21%
COCC1CN(C)CC12CCN(C(=O)CN1CCCCCC1)CC2 (configuration not stated),-4%
CCc1cc(=O)n(CC(=O)Nc2cc(C)cc(C)c2)c(N2CCOCC2)n1,-1%
COc1ccc(NC(=O)O[C@@H]2CC[C@]3(C)C(CC[C@@H](O)[C@H]3CC(=O)NCc3ccccc3)[C@]2(C)CO)cc1 (some centres not stated),1%
CC(C)(Oc1nn(CCOc2ccccc2)c2ccccc12)C(=O)NCC1CCOCC1,-10%[70.6 µM]
O=C(Nc1ccccc1F)N1CCCCCC1CN1CCCC1 (configuration not stated),1%
CN(Cc1cccnc1)c1nc2c(c(=O)[nH]1)CCN(Cc1cc(F)ccc1F)CC2,-13%
COc1cccc(CN2Cc3cc(NC(=O)CC(C)(C)C)ccc3OC(C)C2=O)c1OC (configuration not stated),-2%
O=C1CC2CCCC(C1)N2C(=O)C1CCCC1,9%[70.6 µM]
COC(=O)C1=CN(CC(=O)Nc2cccc(Cl)c2)S(=O)(=O)N=C1C,0%
N#Cc1ccccc1CN1CCNc2nc(COc3ccccc3)n(Cc3ccccc3)c2C1=O,-17%
Cc1ccc(-c2noc(-c3nc(C4CC4)no3)n2)cc1,1%
CC(=O)NC1CC(c2cc(NCCCOC3CCN(C)CC3)ncn2)C1 (configuration not stated),0%
Cn1nnc(-c2ccc(C(=O)NC3CCC(n4cnnc4)CC3)cc2)n1 (configuration not stated),2%
CCCCN1CCN(C(=O)c2cc(NC(=O)C3CCC3)cc3nc(C)ccc23)CC1,-1%
CC(=O)Nc1cccc(CN2CCC(N3CCCNC3=O)CC2)c1,-2%[70.6 µM]
CC(C)CCN1CCC(N2CCN(C(=O)c3ccccc3F)CC2)C1=O (configuration not stated),4%
O=C(CCn1ccn2nc3c(c2c1=O)CCCC3)N1CCC(Cc2ccccc2)CC1,1%
CC(C)CCn1c(CN2CCN(C(C)C)C(CCO)C2)nc2ccccc21 (configuration not stated),-2%
O=c1n(-c2ccncc2)nc2n1CCN([S+](=O)([O-])c1cccs1)C2,1%
CCn1ccc(C(=O)N2CCC(Oc3ccccc3-c3nc(C4CCOCC4)no3)C2)n1 (configuration not stated),3%
CCNC(=O)[C@@H]1C[C@H](n2cc(CN(C)C(=O)OC)nn2)CN1,1%
COc1ccc(NC(=O)N2C[C@@H]3C[C@H](C2)c2ccc(NC(=O)Nc4ccccc4)c(=O)n2C3)cc1,-7%
CC(C)N1C[C@H](C(=O)NCCc2ccccc2)[C@H](C(=O)O)C1,4%
Cc1ccc(CC2CCOC3(CCN(C(=O)c4cccc(C#N)c4)CC3)C2)cc1 (configuration not stated),?
CN(Cc1cccn1C)[S+](=O)([O-])c1cccc(C(F)(F)F)c1,17%[70.6 µM]
CCCN(CC1CCOC1)S(=O)(=O)c1cn(C)cn1 (configuration not stated),1%
O=C(NCCCc1ccccc1)C1CN(c2ccccc2)C(=O)N1 (configuration not stated),11%[70.6 µM]
O=C(c1ccc(F)cc1Cl)N1CCC(Cc2nc(-c3ccc(F)cc3)no2)CC1,3.2µM*
CCc1noc(-c2ccn3c(CNC(=O)c4cccc(Cl)c4)nnc3c2)n1,-1%
COc1ccc(-c2cc(C[C@H]3CNCC[C@H]3CC(=O)NCc3cccs3)no2)cc1,-15%[70.6 µM]
O=C(N[C@H]1CCN2C(=O)c3cc(-c4ccc5c(c4)OCO5)ccc3NC(=O)[C@H]12)C1CCCC1,2%
C[C@@H]1CN(c2ccc(C#N)cn2)C[C@@]1(O)C1CC1,-2%
O=C(NCC1CC1)c1cn(C2CN(S(=O)(=O)c3cccc(F)c3)C2)nn1,-2%
COCCNC(=O)CCCN1C(=O)COc2ccc(C(=O)COc3ccc(Cl)c(C)c3)cc21,-9%
CN(C)C(C(=O)N1CCC(C(=O)N2CCCC2)CC1)c1cccc(F)c1 (configuration not stated),0%
N#Cc1cccc(C(=O)N2CCC(Cc3nc(-c4ccncc4)n[nH]3)C2)c1 (configuration not stated),4%
O=C(c1ccc2ncccc2c1)N1CCOC(c2ccc(Cl)c(Cl)c2)C1 (configuration not stated),?
COC(=O)[C@H](NC(=O)[C@@H]1C[C@H](NC(=O)Nc2cccc(SC)c2)CN1C(=O)CSC)C(C)C,-2%
COCCC(=O)N1CCC2(CC1)CC(N(C(=O)c1ccccc1)C1CC1)CCO2 (configuration not stated),5%
Cc1cn2nc(C(=O)N3CCC(NC(=O)c4ccc(C)c(C)c4)CC3)cc2c(=O)[nH]1,12%
CNC(=O)[C@@H]1C[C@H](Oc2cccnc2)CN1C(=O)CC1CCCC1,-2%
O=C([C@@H]1C[C@H](Oc2ccccc2)CN1C(=O)CC1CCCC1)N1CCCC1,0%

# Shown as labelled records: 3 of the compounds above.
COC(=O)[C@H](NC(=O)[C@@H]1C[C@H](NC(=O)Nc2cccc(SC)c2)CN1C(=O)CSC)C(C)C
  hNpr1 antagonist: -2%

COCCC(=O)N1CCC2(CC1)CC(N(C(=O)c1ccccc1)C1CC1)CCO2 (configuration not stated)
  hNpr1 antagonist: 5%

Cc1cn2nc(C(=O)N3CCC(NC(=O)c4ccc(C)c(C)c4)CC3)cc2c(=O)[nH]1
  hNpr1 antagonist: 12%

# In the list so far, eleven contain a Cl atom.
SMILES,hNpr1 antagonist
COC(=O)C1=C(C)N(Cc2cccc(F)c2)C(=O)CC1c1ccccc1Cl (configuration not stated),-5%
COc1ccc(C(=O)N2C[C@@H]3C[C@H](C2)c2c(/C=C/c4ccc(Cl)cc4)ccc(=O)n2C3)cc1,-3%
CCS(=O)(=O)Nc1ccc(C2(C(=O)NCc3cccc(Cl)c3)CCC2)cc1,0%
COc1ccc(Cl)cc1-c1ccc2c(c1)C(=O)N1CCN(C(=O)c3ccccc3)C[C@@H]1C(=O)N2,2%
COc1ccc(Cl)cc1C(=O)N(C)C1CCc2nn(C)c(=O)n2CC1 (configuration not stated),1%
CC(C)(Oc1nn(Cc2cccc(Cl)c2)c2ccccc12)C(=O)NC1CCC(O)CC1 (configuration not stated),-26%
COC(=O)C1=CN(CC(=O)Nc2cccc(Cl)c2)S(=O)(=O)N=C1C,0%
O=C(c1ccc(F)cc1Cl)N1CCC(Cc2nc(-c3ccc(F)cc3)no2)CC1,3.2µM*
CCc1noc(-c2ccn3c(CNC(=O)c4cccc(Cl)c4)nnc3c2)n1,-1%
COCCNC(=O)CCCN1C(=O)COc2ccc(C(=O)COc3ccc(Cl)c(C)c3)cc21,-9%
O=C(c1ccc2ncccc2c1)N1CCOC(c2ccc(Cl)c(Cl)c2)C1 (configuration not stated),?

# Source: PubChem BioAssay (National Center for Advancing Translational Sciences (NCATS))
